Screens deposited in PubChem BioAssay by National Center for Advancing Translational Sciences (NCATS).
A647 autofl: qHTS Assay for Spectroscopic Profiling in A647 Spectral Region | Compound fluorescence, A647 channel (570/671 nm), Tris buffer | max dye-equivalent concentration, M | 59,000 tested, under 10 active | AID 592, 2007; active means above 1 µM dye equivalent; inconclusive means 0.1 to 1 µM; inactive means 0.1 µM or less;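 also: values scaled relative to a standard on each plate; highest value over a series up to 38 µM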
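Compound fluorescence was measured in 100 mM Tris buffer, pH 8.0, after 15 min at room temperature, using 570 nm excitation and 671 nm emission filters. Signal was normalized to a per-plate Alexa 647 standard curve and expressed as dye-equivalent concentration at each compound concentration.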
Resorufin fluor: qHTS Assay for Spectroscopic Profiling in Resorufin Spectral Region; Compound fluorescence, resorufin region 547/598 nm, buffer; stronger effect = higher value; max dye-equivalent concentration, M; 59,000 tested, 0.04% active; AID 588, 2007; active = above 10 nM dye equivalent; inconclusive = 1 to 10 nM; inactive = 1 nM or less; a few of its hits are not listed in these tables; also: highest value over a series up to 38 µM
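Read-out: intrinsic compound fluorescence at ex 547/em 598 nm after 15 min at RT in pH 8.0 Tris (100 mM). Values expressed as resorufin-equivalent concentration from per-plate standard series.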
AID923: qHTS Assay for Allosteric/Competitive Inhibitors of Caspase-1: Spectroscopic Profiling in AFC Spectral Region | Potency, µM (doses to about 57.5 µM), without a hit: at the top dose fluorescence increase, actives largely listed as activators | 75,000 tested, 1.1% active | AID 923, 2007 | compound fluorescence, AFC spectral region (405/520 nm); almost no hit is shown here; active = well fitted activation curve with a large enough effect; inconclusive = small, poorly fitted or top-dose-only effect;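 also: potency is read from the fitted curve at half-maximal effect; 0% is about no effect; scaled to a free AFC standard on each plate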
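Baseline compound fluorescence (AFC region, 405 nm ex/520 nm em) taken from the intercept of kinetic reads with 50 nM caspase-1 and 5 uM Ac-WEHD-AFC; normalized to an on-plate AFC standard curve; compounds titrated up to 57 uM.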
A488 fluor: qHTS Assay for Spectroscopic Profiling in A488 Spectral Region. max dye equivalency, M. AID 591, 2007. 59,000 tested, 0.1% active. compound autofluorescence, A488 spectral region, dye equivalency; stronger effect = higher value; active = above 10 nM dye equivalent; inconclusive = 1 to 10 nM; inactive = 1 nM or less; about half of its hits are not listed in these tables;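 also: highest value over a series up to 38 µM; compound alone in buffer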
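Spectroscopic profiling in the A488 region: compounds in pH 8.0 Tris (100 mM), 15 min RT, CCD imaging with 480 nm excitation and 540 nm emission; responses normalized against A488 dye standards.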
TSHR agonist: qHTS Assay for Agonists of the Thyroid Stimulating Hormone Receptor; Potency, µM (doses to about 57.1 µM), inactives show at the highest dose activation, hits mostly activators; HEK293-CNG-TSHR cells (CNG channel as cAMP sensor), membrane potential dye, cAMP; 73,000 tested, 0.48% active; active = well fitted activation curve of enough size with the parental cells flat; inconclusive = any curve in the parental cells; inactive = parental cells flat and receptor cells flat or falling; also: potency is read from the fitted curve at half-maximal effect; % of control where 0% means no effect; weak receptor curves with flat parental cells got no call and are not listed
Target sequence (P16473 whole entry, looked up): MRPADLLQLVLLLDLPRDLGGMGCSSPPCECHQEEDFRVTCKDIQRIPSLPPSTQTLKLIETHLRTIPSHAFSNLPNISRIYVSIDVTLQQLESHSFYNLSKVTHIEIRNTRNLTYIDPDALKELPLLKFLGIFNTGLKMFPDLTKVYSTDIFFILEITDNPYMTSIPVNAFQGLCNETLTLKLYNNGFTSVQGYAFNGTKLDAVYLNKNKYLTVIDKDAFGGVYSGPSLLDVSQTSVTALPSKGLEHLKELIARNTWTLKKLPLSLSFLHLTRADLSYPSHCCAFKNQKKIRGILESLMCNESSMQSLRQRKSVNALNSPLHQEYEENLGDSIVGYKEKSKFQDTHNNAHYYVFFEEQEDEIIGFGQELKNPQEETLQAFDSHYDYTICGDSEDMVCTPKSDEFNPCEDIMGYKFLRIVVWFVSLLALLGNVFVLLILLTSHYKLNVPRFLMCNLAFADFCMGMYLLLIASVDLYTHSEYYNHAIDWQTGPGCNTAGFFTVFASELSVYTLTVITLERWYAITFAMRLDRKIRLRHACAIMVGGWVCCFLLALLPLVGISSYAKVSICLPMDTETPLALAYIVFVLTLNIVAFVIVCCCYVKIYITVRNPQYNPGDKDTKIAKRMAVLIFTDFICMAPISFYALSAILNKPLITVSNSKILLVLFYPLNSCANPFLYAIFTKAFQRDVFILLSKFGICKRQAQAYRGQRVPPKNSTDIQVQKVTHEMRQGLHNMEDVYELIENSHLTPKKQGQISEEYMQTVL
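HEK 293 cells stably expressing TSHR and a cAMP-gated CNG channel; parental CNG-only cells as counterscreen. Cells preloaded 60 min with membrane potential dye plus 100 uM RO 20-1724, then compound 30 min; fluorescence read at 590 nm.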
* hit, by the source's call; i = inactive; ? = inconclusive; . = no result given; [ ] = another dose, or the depositor's remark.

A first look:
cpd	canonical_smiles	A647 autofl	Resorufin fluor	AID923	A488 fluor	TSHR agonist
1	Cc1cc(NC(=O)CSc2nc3c(c(=O)n2-c2ccc(Br)cc2)SCC3)no1	1.2e-08	i	-0.7%	i	15%
2	O=C(CCN1C(=O)c2ccccc2C1=O)N1CCC(c2ccccc2)C1 (centres undefined)	2.5e-09	i	-0.9%	i	18%
3	O=C(CSc1nc2cc(Cl)ccc2o1)c1cccs1	3.2e-08	i	0.2%	i	?

The listing, from the start:
cpd	canonical_smiles	A647 autofl	Resorufin fluor	AID923	A488 fluor	TSHR agonist
1	Cc1cc(NC(=O)CSc2nc3c(c(=O)n2-c2ccc(Br)cc2)SCC3)no1	1.2e-08	i	-0.7%	i	15%
2	O=C(CCN1C(=O)c2ccccc2C1=O)N1CCC(c2ccccc2)C1 (centres undefined)	2.5e-09	i	-0.9%	i	18%
3	O=C(CSc1nc2cc(Cl)ccc2o1)c1cccs1	3.2e-08	i	0.2%	i	?
4	O=C(OCC(CO)OC(CO)n1ccc(=O)[nH]c1=O)c1ccccc1 (centres undefined)	6.7e-09	i	-0.7%	i	8%
5	CC1(C)CC(=O)C(C=Nc2ccc3cn[nH]c3c2)=C(O)C1	.	.	2.2%	.	14%
6	Cc1onc(-c2ccccc2)c1C(=O)N1CC(C)OC(C)C1 (centres undefined)	.	.	-3.4%	.	9%
7	COc1ccccc1CNc1nc(-c2ccccc2OC)nc2ccccc12	4.7e-09	i	0.8%	i	32µM*
8	Cc1cc2nc(C3CCN(Cc4nnnn4Cc4cccs4)CC3)[nH]c2cc1C	2e-08	i	-0.3%	i	9%
9	CC[N+](C)(CC)CCOC(=O)C1c2ccccc2Oc2ccccc21	2.8e-09	i	0.0%[25.7 µM]	i	0%[25.6 µM]
10	ICCc1ccccc1	.	.	14%	.	-5%
11	COc1ccc(-c2nn3c(C4CCCCC4)nnc3s2)cc1OC	1e-09	i	.	i	.
12	N[C@H]1[C@@H](C(=O)O)[C@H]2C=C[C@H]1C2	4.4e-08	i	0.2%[11.5 µM]	i	8%[11.4 µM]
13	CN(C)S(=O)(=O)c1ccc(C(=O)Nc2ccc(Cl)cc2)cc1	.	.	2.1%	.	13%
14	O=C(O)c1ccccc1-c1ccccc1C(=O)NCc1ccco1	5.6e-08	i	0.3%	i	8%
15	COc1cccc(C(=O)Nc2c(C)n[nH]c2C)c1	3.2e-08	i	-0.5%	i	-2%
16	C[C@@H]1C[C@H]2[C@@H]3CCC4=CC(=O)C=C[C@]4(C)[C@@]3(F)[C@@H](O)C[C@]2(C)[C@@]1(O)C(=O)COP(=O)(O)O	1.9e-09	i	.	i	.
17	Brc1ccccc1-c1nnc(CSc2nnc3sc4ccccc4n23)o1	1.1e-08	i	0.5%	i	8%
18	CCOc1ccc(NC(=O)CSc2nccn2C)cc1	2.7e-08	i	0.5%	i	-3%
19	O=C(c1cnccn1)N1CCC2(CCCN(c3ccc(-c4ccccc4)cc3)C2)CC1	1e-09	i	1.0%	i	18%
20	O=C(CSc1nc2ccccc2n1CC(=O)NCc1ccccc1)NCc1ccco1	2.5e-08	i	0.3%	i	?
21	c1ccc(CSc2nnc(-c3ccco3)n2Cc2ccco2)cc1	2.2e-09	i	1.4%	i	.
22	COCCSc1nnc(NC(=O)COC)s1	9.2e-09	i	-1.7%	i	-5%
23	CC(NC(=O)Cn1nc(C(=O)O)c2ccccc2c1=O)c1ccccc1 (centres undefined)	1e-09	i	-1.4%	i	13%
24	C[N+]1([C@H](CO)Cc2c[nH]c3ccccc23)Cc2ccccc2C1	4.6e-08	i	1.4%[11.5 µM]	i	0%[11.4 µM]
25	CC1(C)Cc2ccccc2C(=O)N1	4.3e-09	i	0.2%	i	1%
26	CN(CCCCCC(=O)/C=N/O)Cc1ccccc1	1.9e-09	i	.	i	.
27	CCOC(=O)c1oc2ccccc2c1CN1CCN(C(=O)c2ccccc2)CC1	.	.	-0.2%	.	?
28	COCCn1c(Sc2ccccc2)nc2c1c(=O)[nH]c(=O)n2C	3.6e-08	i	2.3%	i	?
29	CC(=O)c1c(C)[nH]c(C(=O)CSc2nnc(CN3CCCCCC3=O)n2-c2ccccn2)c1C	9.1e-09	i	0.5%	i	2%
30	Cc1cc(C)nc(SCC(=O)c2cc3ccccc3oc2=O)n1	7.8e-09	i	1.5%	i	-3%
31	O=C(O)C1CC=C(Cl)CC1C(=O)NCC1OCCc2ccccc21 (centres undefined)	7.9e-09	i	1.0%	i	-2%
32	Cc1cc(S(=O)(=O)N2CCOCC2)ccc1F	6.4e-09	i	-0.3%	i	?
33	CCOC(=O)C1=C(C)NC(C)=C(C(=O)OCC)C1C(=O)O	.	.	1.5%	.	-2%
34	CC(=O)Nc1ccc(C2C(C)CCC3C(=O)N4C(CCC(C)[C@@H]4c4ccc(NC(C)=O)cc4)C(=O)N32)cc1 (some centres undefined)	.	.	0.7%[11.5 µM]	.	-6%[11.4 µM]
35	O=C(Nc1ccccc1F)C1CCCN(S(=O)(=O)c2cccc3cccnc23)C1 (centres undefined)	.	.	-0.1%	.	5%
36	COc1ccc(OC)c(C2CC(=O)N3CN(c4ccccc4F)CSC3=C2C#N)c1 (centres undefined)	.	.	1.4%	.	0%
37	CC1CCc2c(sc3c2C2=NS(=O)(=O)CCN2C=N3)C1 (centres undefined)	5.9e-09	i	0.5%	i	-4%[11.4 µM]
38	COc1ccc(C2CC(=O)c3c(C)nc(N4CCN(Cc5ccccc5)CC4)nc3C2)cc1OC (centres undefined)	1.2e-08	i	2.3%	i	27%
39	CCC(C)C(NC(=O)c1ccccc1NC(=O)c1ccc(OC)cc1)C(=O)NCc1ccco1 (centres undefined)	1.9e-08	i	-0.6%	i	6%
40	COc1ccc(N/C=C(\C#N)c2nc3ccccc3n2C)c(OC)c1	1e-08	i	.	i	.
41	COc1ccc(S(=O)(=O)NCCSc2ccc(C)cc2)cc1OC	.	.	0.0%	.	?
42	O=C(COC(=O)C1CCC1)Nc1ccc(OC(F)F)cc1	5.5e-09	i	0.2%	i	-5%
43	CCN(c1ccccc1)S(=O)(=O)c1ccc(F)c(C(=O)O)c1	3.1e-09	i	-1.1%	i	3%
44	COCCSc1nc2sc3c(c2c(=O)n1-c1ccccc1)CCN(C)C3	1.3e-08	i	-0.6%	i	14%
45	CN(C)C(=O)c1ccc(-c2nc(NCc3cccs3)c3ccccc3n2)cc1	1e-09	i	-1.4%	i	?
46	C=C(C)Cn1c(-c2ccccc2)nc2ccccc21	.	.	1.2%	.	3.2µM*
47	N=c1nc(N)nc2n1NC(c1ccc(F)cc1)=CS2	1e-09	i	-0.4%	i	-8%
48	CC1(C)C(=O)C2(C(=O)NCc3ccccc3)CCC1C2 (centres undefined)	1.4e-09	i	-1.0%	i	-9%
49	CCOC(=O)c1cc2n(n1)C(C(F)(F)C(F)(F)F)CC(C)N2 (centres undefined)	1.8e-09	i	0.7%	i	2%
50	O=C(NCc1ccccc1)c1cc(-c2cccs2)on1	3.4e-08	i	1.3%	i	3%
51	Cc1nc2ccccn2c1-c1nnco1	1e-09	i	1.0%	i	0%
52	COc1ccccc1N1CCN(C(=O)CSc2nc(C)c(Cc3ccccc3)c(=O)[nH]2)CC1	8.2e-09	i	-1.0%	i	?
53	c1ccc(-c2cc(-c3nnc4sc(-c5ccccn5)nn34)[nH]n2)cc1	2.1e-08	i	1.4%	i	?
54	N#Cc1c(Nc2ccccc2)c(C=NCCN2CCOCC2)c[nH]c1=O	1.2e-08	i	9.4%	i	0%
55	O=C(NCc1ccc2c(c1)OCO2)C1CCN(c2ncccn2)CC1	1.3e-08	i	-1.1%	i	-1%
56	CN1CCN(CP(=O)(N2CCOCC2)N2CCOCC2)CC1	1e-09	i	-1.1%	i	-6%[11.4 µM]
57	CCCCCSc1nc2c(c(=O)[nH]c(=O)n2C)n1CC	.	.	1.6%	.	3%
58	COC(=O)C1=C(C)NC(C)=C(C(=O)OC)C1c1cn(-c2ccccc2)nc1-c1ccco1	.	.	1.9%	.	1.6µM*
59	CN(C)C(=O)c1ccc(-c2nc(N(C)Cc3ccco3)c3ccccc3n2)cc1	1e-09	i	0.1%	i	?
60	CCn1c(CNc2ccc(C)cc2C)nnc1SCC(=O)N1CCCc2ccccc21	1e-09	i	1.3%	i	11%

Following part
cpd	canonical_smiles	A647 autofl	Resorufin fluor	AID923	A488 fluor	TSHR agonist
61	CC(=O)N(O)CCCCCNC(=O)CCC(=O)N(O)CCCCCNC(=O)CCC(=O)N(O)CCCCCN	1e-09	i	0.0%	i	-5%[25.6 µM]
62	CC(Sc1nc2ccccc2c(=O)n1Cc1ccco1)C(=O)c1ccccc1 (centres undefined)	8.8e-09	i	-1.0%	i	?
63	Cc1cccc2cc(COC(=O)c3ccccc3)c(=O)[nH]c12	3.4e-08	i	-1.2%	i	17%
64	CCCCCc1c(C)nc(N2CCOCC2)[nH]c1=O	7.2e-09	i	-2.4%	i	3%
65	Cc1cccc(CNc2ncnc3ccc(-c4ccccc4C#N)cc23)c1	6.2e-09	i	2.5%	i	?
66	O=C(CCCSc1nc2ccccc2[nH]1)NC1=NCCS1	1.7e-08	i	-0.5%	i	-3%
67	N[C@@](CCc1ccccc1)(C(=O)O)c1ccccc1	1e-09	i	-0.3%[11.5 µM]	i	-4%[11.4 µM]
68	CCCc1[nH]nc2c1C1(CCN(C(=O)OCc3ccccc3)CC1)C(C#N)=C(N)O2	5e-09	i	-0.9%	i	-28%
69	O=C(OCCN1C(=O)c2ccccc2C1=O)c1cc(=O)[nH]c2ccccc12	4.3e-09	i	-1.5%	i	6%
70	CCOc1ccccc1N1CCN(C(=O)c2cc3c(s2)CCC3)CC1	8.4e-09	i	-2.2%	i	9%
71	COc1cc(NS(=O)(=O)c2ccc(Br)s2)cc(OC)c1	1.3e-08	i	3.5%	i	.
72	Cc1nnc(SCC(=O)Nc2cccc(C(F)(F)F)c2)[nH]c1=O	2.7e-08	i	-0.2%	i	13%[11.4 µM]
73	COc1ccc(Cc2nnc(NC(=O)c3ccco3)s2)cc1OC	1.4e-08	i	-0.4%	i	-2%
74	CCC1CCCCN1C(=O)c1cc(-c2ccc(Cl)c(Cl)c2)on1 (centres undefined)	1.3e-09	i	-2.0%	i	.
75	COc1cccc(-c2nc(NCC3CCCO3)c3ccccc3n2)c1O (centres undefined)	8.4e-09	i	.	i	.
76	CC(=O)CC1(O)C(=O)N(CN2CCN(c3ccccc3)CC2)c2ccccc21 (centres undefined)	.	.	-0.2%	.	7%[11.4 µM]
77	CCN(CC)C(=O)CSc1nnc(-c2cc(OC)cc(OC)c2)o1	1.3e-09	i	0.9%	i	5%
78	COc1cc(C)nc(Oc2ccc(OCc3ccccc3)nn2)n1	.	.	0.5%	.	15%
79	Cc1ccc2[nH]c(=O)c(COC(=O)C3CCCO3)cc2c1 (centres undefined)	1e-09	i	0.6%	i	-1%
80	COC(=O)C1=C(C)N2C(=O)CSC2=NC1c1ccc2c(c1)OCO2 (centres undefined)	.	.	3.9%	.	13%
81	COc1ccccc1C(=O)Nc1cc(Cl)ccc1O	5.9e-09	i	.	i	.
82	Cc1cc(OCC(O)CN2CCN(CCO)CC2)ccc1C(C)C (centres undefined)	1.3e-08	i	-3.6%	i	13%
83	COc1ccccc1NC(=O)CSc1nc2nc(C)cc(C)c2c(=O)[nH]1	6.4e-08	i	-1.1%	i	4%
84	CCCCN(C)CCCNC(=O)c1ccc(N2CCCC2=O)cc1	1e-09	i	0.8%	i	29%
85	COc1ccc(-c2nnc(SCCOc3cccc(C)c3)n2N)cc1	9.1e-09	i	-5.4%	i	19%

An excerpt (hit frequency here may not be typical).
